High-throughput results as filed in PubChem.
gsp antag = antagonizes gsp, the McCune-Albright syndrome mutation | gsp-mutant cells, cAMP HTRF, 30 min; control for the full effect not named in the record | Potency, µM (highest dose often 76.9 µM), for inactives: at the highest dose activity change, negative = inhibition, actives largely listed as inhibitors | 340,000 tested, 0.4% active; active = falling curve of any shape with a large fitted effect; inconclusive = falling curve, mostly with a smaller effect; inactive = flat or rising curve; cell line not stated here;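 also: intracellular cAMP measured with PDE inhibitor Ro 20-1724 present during compound exposure; potency is read from the fitted curve at half-maximal effect; % is scaled to controls: 0 for no effect and ±100 for the full control effect; nearly all actives have a fitted effect of over 65% in size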
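Measurement of cellular cAMP by homogeneous time-resolved fluorescence following a 30 min compound exposure at 37C. The PDE inhibitor […] was present throughout; the assay buffer was DPBS with 0.05% BSA and 0.005% Tween 20.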
Menin-MLL FL inh = inhibitors of human menin-MLL interaction, wild-type MLL peptide | Fluorescence polarization, fluorescein-MLL peptide displacement from menin | FP activity change, % at 61.4 µM | 290,000 tested, under 10 active | AID 1766; inconclusive = falling polarisation curve, or a change in total fluorescence; inactive = total fluorescence flat and polarisation flat or rising; no compound was filed as active; the % refers to the polarisation; negative = inhibition;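 also: % of control where 0% means no effect; inhibitors lower the polarisation; unlabelled MLL peptide was the positive control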
PINK1 expr mod = PINK1 expression modulation | PINK1 immunofluorescence, high-content cytometry, 24 h | Potency, µM (doses to about 76.6 µM), inactives show at the top dose activation (PINK1 increase), hits mostly activators | 410,000 tested, 0.2% active; active = well fitted activation curve with a large enough effect; inconclusive = small, poorly fitted or top-dose-only effect; inactive = flat fitted curve, though single readings scatter; cell line not stated here;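 also: potency is read from the fitted curve at half-maximal effect; % of control where 0% means no effect; nearly all actives have a fitted effect of over 65% in size; a mitochondrial uncoupler was the plate control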
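PINK1 protein, normally rapidly degraded, was detected by immunofluorescence after 24 hour compound treatment of a stable cell line. Titration data (5 concentrations) came from laser-scanning cytometry, with CCCP-treated wells as controls.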
ClpP mod = qHTS Assay for Activators of ClpP; AID 651965, 2013; ATP-dependent Clp protease proteolytic subunit (Bacillus subtilis (strain 168)), P80244; Potency, µM (titrated, usually from 57.5 µM), for the others: top-dose activity change, negative = active; 340,000 tested, 1.9% active; purified B. subtilis ClpP, FRET peptide cleavage, 20 min; active = well fitted falling curve with a large enough effect; inconclusive = small, poorly fitted or top-dose-only effect; inactive = no such curve, though single readings can be large or run the other way; also: potency is read from the fitted curve at half-maximal effect; the source files actives as falling curves though it sought activators and does not explain the sign; nearly all actives have a fitted effect of over 65% in size; many hits overshoot -100%
Target sequence (P80244 whole entry, looked up): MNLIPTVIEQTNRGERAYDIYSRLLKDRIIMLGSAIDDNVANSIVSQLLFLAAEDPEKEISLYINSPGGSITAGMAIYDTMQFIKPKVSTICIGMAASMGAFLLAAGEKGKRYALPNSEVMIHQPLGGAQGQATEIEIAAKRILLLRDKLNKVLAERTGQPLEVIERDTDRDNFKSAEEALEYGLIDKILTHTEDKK
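Purified B. subtilis ClpP, 10 microg/mL final in Tris/HCl pH8 with KCl, BSA, glycerol and Tween-20, cleaved an Abz/nitrotyrosine-quenched decapeptide. Fluorescence (ex 320, em 430) was read at 0 and 20 min at room temperature. Delta was normalized to 5.8 microM ADEP and DMSO/no-enzyme controls.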
D2 ag = agonists of human D2 dopamine receptor (beta-arrestin); 360,000 tested, 0.084% active; AID 624465; DiscoveRx PathHunter D2 beta-arrestin, luminescence, 90 min; 100% = 57 uM dopamine signal; activation, % (test concentration not listed); in the data active = activation above about 40%; inconclusive = about 15% to 40%; inactive = below about 15%; also: compound concentration not given in the record; the text of the record calls up to 30% inactive
Target sequence (P14416 whole entry, looked up): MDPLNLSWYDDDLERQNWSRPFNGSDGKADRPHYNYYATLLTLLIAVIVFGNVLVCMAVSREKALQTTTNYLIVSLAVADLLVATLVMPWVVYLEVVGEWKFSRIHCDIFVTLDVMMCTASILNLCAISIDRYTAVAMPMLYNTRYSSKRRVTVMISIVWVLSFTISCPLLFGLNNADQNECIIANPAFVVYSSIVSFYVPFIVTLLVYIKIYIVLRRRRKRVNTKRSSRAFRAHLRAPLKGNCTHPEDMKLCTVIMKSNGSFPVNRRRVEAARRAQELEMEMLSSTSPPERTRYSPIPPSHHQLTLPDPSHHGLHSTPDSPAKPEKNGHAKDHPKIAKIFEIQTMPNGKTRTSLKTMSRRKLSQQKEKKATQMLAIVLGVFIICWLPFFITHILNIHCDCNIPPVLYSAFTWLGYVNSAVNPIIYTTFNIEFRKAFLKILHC
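Agonist mode: compounds alone added to overnight-plated D2 PathHunter cells for 90 min at 37 C, with 57 uM final dopamine (EC100) defining full response. Beta-arrestin recruitment detected by chemiluminescent reagent, read after 1 h at ambient temperature.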
gsp agonist = agonists of gsp mutant (McCune-Albright syndrome). 340,000 tested, 0.13% active. Potency, µM (top dose mostly 76.9 µM), for the others: at the highest dose activation (cAMP increase), most hits filed as activators. gsp mutant cells, cAMP HTRF, 30 min; control for the full effect not named in the record; active = well fitted activation curve with a large enough effect; inconclusive = small, poorly fitted or top-dose-only effect, or another doubt; inactive = no such curve, though single readings can be large or run the other way; cell line not stated here;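 also: phosphodiesterase inhibitor Ro 20-1724 added with compounds to block cAMP breakdown; potency is read from the fitted curve at half-maximal effect; nearly all actives have a fitted effect of over 60% in size; about a fifth of the inactives were tested at one dose only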
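Cells in DMEM/10% FBS with G418 were pretreated with compounds in DMSO plus […] (300 uM stock) for 30 min at 37C. cAMP was measured by HTRF (cAMP-d2 plus anti-cAMP antibody-K) after 30 min at room temperature.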
Sfp inh = Sfp phosphopantetheinyl transferase inhibition | Q9F4F7 | 310,000 tested, 3.5% active | AID 1490 | Biochemical Sfp PPTase activity, qHTS | Potency, µM, for inactives: max response, negative = inhibition, hits mostly inhibitors; active = well fitted inhibition curve with a large enough effect; inconclusive = small, poorly fitted or top-dose-only effect, or another doubt; inactive = no such curve, though single readings can be large or run the other way;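 also: the enzyme is Sfp with the accession as filed and its product quenches rhodamine fluorescence; potency is read from the fitted curve at half-maximal effect; 0% = enzyme reaction without inhibitor and -100% = no enzyme wells; top concentration of the series not given in the record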
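Step 1, compound plus 15 nM Sfp-PPTase, 15 min, room temperature. Step 2, add rhodamine-CoA (5 uM) and BHQ-2-YbbR (12.5 uM). Step 3, read 525/598 nm fluorescence at 0 and 30 min.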
Active calls of the source: *; ? = inconclusive; · = no result given; [ ] = dose if it differs, or a comment.

SMILES	gsp antag	Menin-MLL FL inh	PINK1 expr mod	ClpP mod	D2 ag	gsp agonist	Sfp inh
CCCCOC(=O)Nc1sc2nc(C)cc(C)c2c1-n1cccc1	-5%[15.4 µM]	0.1	11%	-1.1%	-4.4	22%	19%
CCOC(=O)N1CCN(C(=O)c2cn(C)c(=O)c3c2c2ccccc2n3C)CC1	-3%	5.2	20%[38.3 µM]	14µM*	-1.6	-39%[inhibitor]	5%
Cc1nonc1C1CCCN1C(=O)c1cc(COc2ccc(F)cc2F)on1 (centres undefined)	21%	-5.0	-0.2%	·	0.2	-6%[15.4 µM]	3%
O=C(O)CSCC(=O)NCc1ccc(Cl)cc1	9%	-0.7	2.7%	·	3.8	7%	22%
CCOc1ccc(C(O)Cc2nc3ccccc3n2C)cc1 (centres undefined)	-7%	0.0	9.2%[38.3 µM]	-0.4%	-0.8	20%	1%
COc1ccc(C(=O)N2CCN(c3c(C)cccc3C)CC2)cc1OC	-15%	2.6	-0.5%	-1.3%	-3.2	-28%	7%
N#Cc1ccccc1OCc1cn(CC(=O)c2ccc(O)cc2)nn1	-3%	·	0.0%	0.3%	-11	·	·
Cc1cc(NC(=O)c2ccccc2)nc2c1c(=O)oc1ccccc12	·	4.3	0.1%	·	0.3	0%[15.4 µM]	0%
CCc1nnc(NS(=O)(=O)c2ccc(NC(=O)c3ccccc3)cc2)s1	-11%	-0.6	0.0%	-0.3%	-5.4	-18%	16%
C#CCOCCOCCOCCNc1nc(N2CCOCC2)nc(N2CCN(C(=O)[C@H](Cc3ccc(O)cc3)n3cc(CCO)nn3)CC2)n1	9%	·	-0.2%	2.4%	-3.4	-1%	·
Cc1ccc(C(C(=O)NCc2ccc(F)cc2)N(C(=O)c2csnn2)C2CC2)o1 (centres undefined)	-6%	-2.0	-2.4%	0.8%	-2.1	-30%	0%
COc1cc(C#N)ccc1OC(=O)C1CCN(C(=O)c2ccc(F)cc2)CC1	3%	·	-1.4%	·	-4.6	24%[15.4 µM]	·
Cc1ccc(O)c(-c2[nH]ncc2C(=O)c2ccc(Br)cc2)c1	3%	0.6	2.6%	0.0%	-0.1	29%	7%
Cc1cc(C)c2c(=O)[nH]c(=O)n(Cc3ccccc3)c2n1	10%	?	?	-6.1%	-3.4	?	8%
COc1ccc(S(=O)(=O)N(C)C[C@H]2Oc3c(NC(=O)NC(C)C)cccc3C(=O)N([C@H](C)CO)C[C@@H]2C)cc1	-8%	·	1.4%	-0.3%	1.3	·	·
CC1(C(=O)O)CCN1C(=O)c1cccc(OC(F)(F)F)c1 (centres undefined)	·	·	3.1%	1.4%	-2.1	·	·
COc1ccc(-c2nn(CCC(=O)O)cc2/C=N/NC(N)=S)cc1	1%	7.0	0.5%	·	-0.4	0%[15.4 µM]	?
CCOc1cc(/C=C2\C(=O)N(Cc3ccco3)C(C)=C2C(=O)OC)ccc1O	4%	11	1.4%	·	8.4	?	20µM*
COc1ccc(OCCCC(=O)Nc2cc(S(=O)(=O)N3CCCCC3)ccc2C)cc1	-17%	·	2.8%	-13%	-0.5	0%	·
CCOc1ccc(C2C(C#N)=C(N)N(N(C)C)C3=C2C(=O)CC(C)(C)C3)cc1 (centres undefined)	6%	-2.8	2.5%	·	1.1	-9%	10%
CC1(C(=O)OCC(=O)Nc2cccc(S(=O)(=O)NC3=NCCCCC3)c2)CC1(Cl)Cl (centres undefined)	-8%	6.0	-0.1%	0.2%	-3.1	19%	-2%
Cc1ccc(NN2C(=O)C=C(c3ccccc3)C2=O)cc1	4%	1.5	-0.7%	·	-4.9	-29%	11µM*
CCC(C)c1ccc(NC(=O)c2ccco2)cc1 (centres undefined)	-9%	1.9	3.0%	-0.7%	0.7	-46%[inhibitor]	12%
COc1ccc2oc(C(=O)NC3CCCCC3)c(C)c2c1	-2%	·	0.6%	4.0%	3.9	1%	-1%
CSC1=NC(=O)/C(=C/c2ccc(SC)cc2)S1	-3%	11	1.5%	-4.4%	-2.9	-9%[15.4 µM]	-1%
(more compounds)
SMILES	gsp antag	Menin-MLL FL inh	PINK1 expr mod	ClpP mod	D2 ag	gsp agonist	Sfp inh
COCCNC(=O)C(OC(=O)c1ccco1)c1ccccc1Cl (centres undefined)	6%	3.7	0.1%	·	6.1	-15%	12%
Cc1c(N)cc(C(=O)N2CCOCC2)cc1[N+](=O)[O-]	17%	-1.4	-0.3%	1.0%	-3.4	?	8%
O=C(NCC1CCCO1)c1ccc2nc(N3CCCCC3)sc2c1 (centres undefined)	-9%	-2.5	0.6%	-22%	-2.8	14%	-1%
COc1cc2c(cc1OC)CN(c1nc(CN3CCCC3)nc3sc(C)c(C)c13)CC2	6%	0.5	-0.4%	·	4.4	4%[15.4 µM]	?
O=C(CN1C(=O)C2CCCCC2C1=O)Nc1nc(-c2ccccn2)cs1 (centres undefined)	5%	-0.4	0.7%	-1.1%	-4.3	-36%[inhibitor]	16µM*
CN1Cc2c(N3CCOCC3)nc3sc(C#N)c(N)c3c2CC1(C)C	-22%	-1.3	-0.6%	·	-1.1	-2%[15.4 µM]	-8%
C=CCn1cc(C(=O)N2CCN(c3ccccc3)CC2)c(=O)c2cc(S(=O)(=O)N3CCCC3)ccc21	-2%	·	2.7%	-3.6%	-4.1	3%	11%
COc1ccc(-n2nnnc2SCC(=O)c2ccc(O)c(O)c2)cc1	-29%	0.0	-3.9%	-1.4%	-0.2	?	-10%
COc1ccccc1N1CCN(C(=O)c2cc(S(=O)(=O)N3CCCCC3)ccc2C)CC1	-10%	·	4.7%	·	3.8	3%	·
COc1ccc2c(=O)c(-c3ccccc3)c(C)oc2c1	-12%	4.2	-1.9%	-5.4%	3.6	-20%	14%
Cc1nn(CC(=O)Nc2ccc(C(=O)N(C)C)cc2)c(=O)c2ccccc12	3%	-1.4	1.4%	-1.5%	-2.5	5%	10%
Cc1ccc(C)c(S(=O)(=O)N2CCCOC2CNC(=O)C(=O)NCc2ccco2)c1 (centres undefined)	-1%	7.8	7.3%	-1.8%	-1.4	-4%	9%
Cc1cccc(Nc2nc(-c3cccs3)cs2)n1	2%	0.5	5.4%	0.6%	-0.9	17%	1%
CCCOc1ccc(N2CC(C(=O)Nc3ccccc3F)CC2=O)cc1 (centres undefined)	-8%	4.4	0.5%	0.5%	2.4	-10%	-13%
Cc1cccc(N2CCN(C(=O)C3CC(=O)N(c4ccc5c(c4)OCCO5)C3)CC2C)c1 (centres undefined)	13%	·	4.1%	1.2%	8.2	8%	·
Cc1ccccc1OCCC(=O)OCC(=O)NCCc1ccccc1	6%	·	1.8%	-1.9%	-1.1	-36%	·
CCOc1ccc(C(C)=O)cc1COC(=O)c1ccc2c(c1)NC(=O)CS2	3%	·	5.6%	-1.9%	3.0	-3%	·
CCn1cc(C2=NCCO2)c2ccccc21	2%	0.2	1.3%	-11%	0.6	13%	25%
Cc1cc(C)c(S(=O)(=O)N2CCOC2CNC(=O)C(=O)NCc2cccnc2)c(C)c1 (centres undefined)	5%	3.7	-0.6%	0.5%	-2.6	?	10%
Cc1ccc(C(=O)NCCC2=CCCCC2)cc1S(=O)(=O)N1CCCCC1	-7%	·	22%	-3.1%	-3.1	4%[15.4 µM]	·
O=S(=O)(c1cnc[nH]1)N1CCN(c2ccc(F)cc2)CC1	7%	6.1	2.6%	-4.4%	-1.5	?	6%
COc1ccccc1N(CC(O)CN1CCCC1)S(=O)(=O)c1ccccc1 (centres undefined)	0%	-2.1	-0.6%	·	-1.3	18%	6%
COCCN(C(=O)COC(=O)C1(C)CC1(Cl)Cl)c1c(N)n(Cc2ccccc2)c(=O)[nH]c1=O (centres undefined)	2%	·	-0.1%	1.9%	-4.0	-3%[15.4 µM]	7%
CC(=O)/C(=N/Nc1cccc(Cl)c1)N1CCOCC1	-20%	2.2	-2.7%	-0.6%	-3.8	-5%	-7%
CCN(CC)S(=O)(=O)c1ccc(N2CCOCC2)c(NC(=O)CCOc2ccccc2)c1	-12%	3.6	0.9%	-1.7%	-3.5	27%	6%
(more compounds)
SMILES	gsp antag	Menin-MLL FL inh	PINK1 expr mod	ClpP mod	D2 ag	gsp agonist	Sfp inh
CSCCNC(=O)c1cccc(Cl)c1	-11%	-0.7	-1.1%	-2.1%	-1.8	-9%	11%
COC(=O)c1ccc(Cn2nnc3ccccc3c2=O)o1	5%	23	·	-0.2%	1.9	?	15%
Oc1c(Cl)cc(Cl)cc1C=Nc1ccc(N2CCOCC2)cc1	7%	?	-0.8%	-11%	-1.5	-25%[15.4 µM]	5%
CSc1nc(C)c2c(n1)N(c1ccc(C(F)(F)F)cc1)CC2	8%	3.2	0.5%	4.2%	-0.5	-30%	17%
O=C(O)c1sccc1S(=O)(=O)N1CCCCC1	·	·	0.9%	-1.9%	-2.0	-35%[inhibitor]	·
CCOC(=O)N1CCN(C(=O)c2cn(CC)c3ccc(S(=O)(=O)N4CCCC4)cc3c2=O)CC1	2%	-2.7	3.2%[38.3 µM]	-1.4%	0.7	-15%	11%
CCCc1cc(=O)[nH]c(SC(C)C(=O)N2c3ccccc3CC2C)n1 (centres undefined)	-41%	·	1.1%	-0.1%	5.8	-17%	·
Cc1ccc2oc(=O)c3cnn(CC(=O)N4CCCCCC4)c3c2c1	-9%	-4.3	0.2%	1.2%	-5.1	-1%	15%
CC12CCC(C(=O)NCc3ccc(Cl)cc3)(OC1=O)C2(C)C (centres undefined)	-11%	3.3	3.6%[38.3 µM]	0.9%	-2.4	-44%[inhibitor]	-3%

Compound profiles, from the list above. Values in the order: gsp antag	Menin-MLL FL inh	PINK1 expr mod	ClpP mod	D2 ag	gsp agonist	Sfp inh
Record of Cc1ccc2oc(=O)c3cnn(CC(=O)N4CCCCCC4)c3c2c1 → -9%	-4.3	0.2%	1.2%	-5.1	-1%	15%
Record of Oc1c(Cl)cc(Cl)cc1C=Nc1ccc(N2CCOCC2)cc1 → 7%	?	-0.8%	-11%	-1.5	-25%[15.4 µM]	5%
